Compound activity as filed in PubChem BioAssay.
TRPML1 ag = activates the human TRPML1 channel; TRPML1-expressing cells, Ca2+ dye fluorescence, FDSS; host cell line not named in the record; reference of the full effect not given here; Q9GZU1; AID 624414; 0.12% of 410,000 active; activation, % (test concentration not listed); in the data active = activation above about 50%; inconclusive = about 30% to 50%; inactive = below about 30%; also: 0% is about no effect; the text of the record puts the active cut at 80%
Target sequence (Q9GZU1 whole entry, looked up): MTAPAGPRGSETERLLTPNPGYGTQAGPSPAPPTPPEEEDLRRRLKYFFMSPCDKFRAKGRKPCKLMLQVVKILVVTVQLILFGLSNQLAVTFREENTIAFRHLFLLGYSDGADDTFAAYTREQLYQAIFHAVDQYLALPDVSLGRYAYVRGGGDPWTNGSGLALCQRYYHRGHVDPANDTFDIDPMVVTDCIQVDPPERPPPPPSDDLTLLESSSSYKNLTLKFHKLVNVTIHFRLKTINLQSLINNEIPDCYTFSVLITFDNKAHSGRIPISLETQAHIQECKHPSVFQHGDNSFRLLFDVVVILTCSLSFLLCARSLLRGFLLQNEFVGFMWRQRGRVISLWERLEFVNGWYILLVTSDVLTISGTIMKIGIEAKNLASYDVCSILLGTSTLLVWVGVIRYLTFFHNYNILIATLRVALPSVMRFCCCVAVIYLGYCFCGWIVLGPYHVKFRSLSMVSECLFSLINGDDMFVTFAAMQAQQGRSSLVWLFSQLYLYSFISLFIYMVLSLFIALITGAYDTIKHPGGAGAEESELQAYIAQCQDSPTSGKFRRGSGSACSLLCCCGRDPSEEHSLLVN
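In this qHTS format, compounds were pin-transferred onto Ca8-dye-loaded TRPML1-DL cells induced with Tet overnight, and intracellular Ca2+ fluorescence was recorded kinetically for 110 s after a 10 s baseline. A subsequent 4uM final 54-4 (EC80) addition followed by a second 110 s read served as the antagonist phase.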
D2 agonist = human D2 receptor agonism in beta-arrestin assay | P14416 | DiscoveRx PathHunter D2 beta-arrestin, luminescence, 90 min; 100% = 57 uM dopamine signal | activation, % (test concentration not listed) | 0.084% of 360,000 active | AID 624465; in the data active = activation above about 40%; inconclusive = about 15% to 40%; inactive = below about 15%; also: compound concentration not given in the record; the text of the record calls up to 30% inactive
Target sequence (P14416 whole entry, looked up): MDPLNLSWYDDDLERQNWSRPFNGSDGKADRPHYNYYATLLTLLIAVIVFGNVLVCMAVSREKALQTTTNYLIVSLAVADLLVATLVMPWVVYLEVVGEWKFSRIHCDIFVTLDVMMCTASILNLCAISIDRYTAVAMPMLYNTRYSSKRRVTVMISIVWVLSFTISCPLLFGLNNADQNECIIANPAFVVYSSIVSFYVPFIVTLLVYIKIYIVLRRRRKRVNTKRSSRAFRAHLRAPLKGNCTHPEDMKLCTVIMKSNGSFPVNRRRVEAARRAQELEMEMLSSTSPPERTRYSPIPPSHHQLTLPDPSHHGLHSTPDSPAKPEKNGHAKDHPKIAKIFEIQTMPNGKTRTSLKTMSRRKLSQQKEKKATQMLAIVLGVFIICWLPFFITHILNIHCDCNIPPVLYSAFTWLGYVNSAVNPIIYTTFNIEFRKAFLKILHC
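Agonist mode: compounds alone added to overnight-plated D2 PathHunter cells for 90 min at 37 C, with 57 uM final dopamine (EC100) defining full response. Beta-arrestin recruitment detected by chemiluminescent reagent, read after 1 h at ambient temperature.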
TRPML1 inh = human mucolipin-1 channel inhibition; AID 624415; TRPML1-inducible cells, Ca2+ dye fluorescence, FDSS; stronger effect = lower value; inhibition of EC80 agonist-evoked calcium signal; activity change, negative = inhibition, % (no concentration beside the values); Q9GZU1; 0.02% of 390,000 active; in the data active means activity change below about -50%; inconclusive means about -30% to -50%; inactive means above about -30%;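 also: stimulus is agonist 54-4 at its EC80 concentration; % is scaled to controls: 0 for no effect and ±100 for the full control effect; compound concentration not given in the record; the text of the record puts the active cut at -80%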
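Tet-induced TRPML1-DL cells loaded with Ca8 no-wash calcium dye were read kinetically on FDSS. Compound addition was followed by EC80 agonist 54-4 (4 uM final); inhibition was read over 110 s.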
PINK1 modulator = changes PINK1 expression; PINK1 immunofluorescence, high-content cytometry, 24 h; Potency, µM (series often up to 76.6 µM), for the others: at the highest dose activation (PINK1 increase), most hits filed as activators; 0.2% of 410,000 active; AID 624263; active = well fitted activation curve with a large enough effect; inconclusive = small, poorly fitted or top-dose-only effect; inactive = flat fitted curve, though single readings scatter; cell line not stated here;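 also: potency is read from the fitted curve at half-maximal effect; % of control where 0% means no effect; nearly all actives have a fitted effect of over 65% in size; a mitochondrial uncoupler was the plate control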
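Fluorescence from anti-PINK1 antibody, together with nuclear and cell stains, was scanned on a laser-scanning cytometer. Before staining, stable-line cells were incubated 24 hours with compounds at 5 concentrations; primary antibody 12 h at 10 degrees C.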
Six1-Eya2 blk = inhibitors of human Six1/Eya2 interaction; AlphaScreen GST-Six1/His-Eya2 binding, biochemical; stronger effect = lower value; control for the full effect not named in the record; 0.56% of 360,000 active; activity change, % (concentration not given with the values); in the data active = activity change below about -65%; inconclusive = about -30% to -65%; inactive = above about -30%; also: % is scaled to controls: 0 for no effect and ±100 for the full control effect
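Compounds are tested against tagged Six1 and Eya2 proteins bridged by glutathione donor and nickel acceptor beads; after a one-hour incubation at 37 °C without light, AlphaScreen emission is recorded.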
CtBP-E1A inh = blocks the CtBP interaction with E1A; AlphaScreen GST-E1A/His-CtBP binding, 1536-well; stronger effect = lower value; control for the full effect not named in the record; activity change, % (test concentration not listed); 0.49% of 340,000 active; in the data active means activity change below about -65%; inconclusive means about -30% to -65%; inactive means above about -30%; also: % is scaled to controls: 0 for no effect and ±100 for the full control effect; compound concentration not given in the record
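Steps: dispense buffer (Tris pH 8.0, NaCl 300 mM, TCEP 1 mM, BSA, Tween 20); add 5X protein mix (GST-E1A, His-CtBP, 125 nM each); pin 23 nL compound; 2 h at 37 °C, dark; add 5X beads (50 ug/mL); 1 h; read.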
An asterisk follows results filed as active; ? = inconclusive; . = no result given; & = joins results of further samples; [ ] = dose if it differs, or a comment.

nr | Molecule | TRPML1 inh | CtBP-E1A inh | D2 agonist | PINK1 modulator | Six1-Eya2 blk | TRPML1 ag
1 | CC(CCc1ccccc1)NC(=O)c1ccc(NC(=O)c2cccc(Br)c2)cc1 (stereo unspecified) | -7 | -2 | 3.4 | ? | 4 | 2.0
2 | O=C1c2cccc(NCCCNCCO)c2C(=O)c2cccc(NCCCNCCO)c21 | 2 | -79* | -3.3 | -7.2% | -71* | 0.1
3 | CSc1ccccc1NC(=O)CN(C)C(=O)/C=C/c1ccccc1 | 18 | . | -4.9 | 5.6% | 8 | -0.4
4 | Cc1nc2sc3c(c2c(=N)n1N)CCCC3 | -1 | -2 | 1.1 | -1.2% | -12 | 0.4
5 | CCCN(C1CCS(=O)(=O)C1)S(=O)(=O)c1ccc(F)cc1 (stereo unspecified) | 11 | 0 | -2.0 | -2.0% | 6 | 0.9
6 | CCOC(=O)c1ccc(NC(=O)CSc2nnc(COc3ccccc3OC)n2C)cc1 | -18 | 37 | -3.4 | 1.9%[38.3 µM] | 21 | 0.6
7 | CCN(CC)c1ccc(/C=C2/SC(=O)N(C(C)C)C2=O)o1 | 16 | 0 | -13 | 10% | 0 | 9.9
8 | CCSc1nc(NCCN(C)C)c2c3c(sc2n1)COC(C)(CC)C3 (stereo unspecified) | -4 | -3 | -2.6 | 0.4% | 9 | 0.1
9 | O=C(/C=C/c1c(F)cccc1Cl)Nc1ncccn1 | -1 | 1 | -1.8 | 0.4% | -5 | -0.6
10 | CC(C)(C)OC(=O)N1CCC(c2c(C(=O)N3CCN(C(=O)c4ccco4)CC3)cnn2-c2ccc(Cl)cc2)CC1 | 20 | . | . | -1.2% | . | -0.7
11 | O=C(N/N=C/c1ccc(OC2CSC2)cc1)c1ccccc1 | -7 | 8 | 2.6 | 2.0%[38.3 µM] | -3 | -0.6
12 | CC/C(=C(\c1ccccc1)c1ccc(OCCN(C)C)cc1)c1ccccc1 | 8&-7 | ? | -2.1&3.5 | -1.1%&-0.3% | -4&-9 | 1.1&-0.5
13 | COC(=O)c1nnn(CC(=O)Nc2c(C)cccc2C)c1N | 17 | . | . | -0.7% | . | -0.2
14 | CCN(C(=O)c1ccc(C(C)(C)C)cc1)c1nnc(Cn2nnc3ccccc32)s1 | 47 | -5 | 1.5 | -0.5% | -1 | 1.7
15 | OC(c1ccccc1)(c1ccccc1)C1CCN(CCCOc2ccccc2Cl)CC1 | . | -4 | . | -0.7% | -14 | 3.0
16 | Cc1ccc([C@@]2(OC(=O)c3ccccc3)C(=O)N(C(=O)OC(C)(C)C)c3ccccc32)cc1 | . | -3 | . | -0.8% | -4 | -0.6
17 | COc1cccc(CNS(=O)(=O)c2ccc3c(c2)N(C)CCO3)c1 | -1 | 0 | -1.2 | 0.5% | -3 | -0.9
18 | Cn1c(=O)c2c(ncn2CC(=O)Nc2nc3ccc(F)cc3s2)n(C)c1=O | -1 | -2 | -1.4 | 4.1% | -10 | 0.1
19 | CCC(c1nnc(SCC(=O)N2CCOCC2)n1C1CCCCC1)N(C)C (stereo unspecified) | -5 | . | -5.3 | -0.9% | 5 | -0.1
20 | COc1cccc(CN2CCN(c3ccc(F)cc3)C2=O)c1 | 17 | 8 | 2.6 | 0.9% | 23 | 0.0
21 | COc1ccc(N2CCN(C(=S)Nc3cc(C)ccc3C)CC2)cc1 | 7 | 8 | -0.5 | 1.8%[38.3 µM] | -3 | -0.5
22 | COc1ccc(-n2c(COc3ccc4ccccc4c3)nnc2SCC(=O)NCc2ccco2)cc1 | 23 | -10 | -2.2 | 0.6%[38.3 µM] | -16 | 3.4
23 | CCC(=O)Nc1ccc(N2CCOCC2)c(S(=O)(=O)Nc2ccc(OC)cc2)c1 | 74 | 3 | -2.2 | 6.1% | 3 | 0.0
24 | C#Cc1cc(N2CCN(C(=O)c3ccoc3)CC2)n2nc(-c3cccc(Cl)c3)cc2n1 | . | -12 | -2.6 | 0.8% | -1 | .
25 | Cn1c(=O)n(Cc2ccc(F)cc2)c(=O)c2c1nc1n2CCN1Cc1ccco1 | 3 | -10 | -1.8 | 1.4% | ? | -0.9

Values by screen from the list.
TRPML1 ag, nos. 8 to 16: 0.1, -0.6, -0.7, -0.6, 1.1&-0.5, -0.2, 1.7, 3.0, -0.6

The list continues.
nr | Molecule | TRPML1 inh | CtBP-E1A inh | D2 agonist | PINK1 modulator | Six1-Eya2 blk | TRPML1 ag
26 | COc1ccccc1-n1nc(-c2ccccc2)c2cnc3c(F)cc(F)cc3c21 | -14 | . | . | 0.3% | . | 2.0
27 | Cc1cc(C)n(CC(O)COc2ccccc2C(=O)Nc2ccccc2)n1 (stereo unspecified) | 3 | -2 | -4.5 | -1.0% | -3 | 0.0
28 | COc1c(C)cc(C(=O)C2CCCN(C(=O)c3cc(C4CC4)[nH]n3)C2)cc1C (stereo unspecified) | 7 | -10 | -2.0 | -1.3% | -1 | -1.3
29 | CCOc1ccc(N(C(=O)CNC(=O)c2ccco2)C(C(=O)NC2CCCC2)c2ccco2)cc1 (stereo unspecified) | 6 | 16 | -6.7 | 2.7% | 3 | -1.8
30 | CC(=O)c1ccc(Nc2nc(CN)cs2)cc1 | . | -1 | -4.0 | -0.2% | 0 | -0.6
31 | CCOc1ccc(S(=O)(=O)Nc2ccccc2SC)cc1 | 10 | 9 | -0.7 | 9.2%[38.3 µM] | 4 | 3.4
32 | CC(=O)c1ccc(OCCCC(=O)NC2=NCCS2)cc1 | -11 | -1 | -1.4 | -0.3% | -1 | 0.0
33 | COc1cc(/C=C(\C#N)c2nc3ccc(C)cc3[nH]2)ccc1OC(C)C | 3 | . | . | 19% | . | 1.7
34 | CN(C)[C@H]1N(C(=O)c2ccc(Br)cc2)N=C2c3ccccc3S(=O)(=O)N21 | 10 | 4 | 0.9 | -2.3% | 1 | -1.3
35 | COc1ccc(Nc2nc(Cl)nc(NCCO)n2)cc1 | -13 | 0 | -6.5 | 5.4% | 3 | -0.1
36 | COc1cccc(NC(=O)C(Cc2ccccc2)NC(=O)C2CCC(C)CC2)c1 (stereo unspecified) | 2 | 3 | -3.5 | 1.2% | 0 | -0.5
37 | Cc1ccc2nc(SCC(=O)NC3CC3)[nH]c2c1 | 8 | -6 | -3.4 | 2.9% | -19 | 0.0
38 | CCC(=O)N1CCCC(C)(C(=O)NS(=O)(=O)c2ccccc2Cl)C1 (stereo unspecified) | . | 9 | -3.4 | 0.2% | 0 | -0.5
39 | COc1cc2ncnc(NCc3ccc4c(c3)OCO4)c2cc1OC | -5 | . | -0.1 | 1.2% | -14 | 1.2
40 | COc1ccc(C(=O)Nc2ccc3ccccc3c2)c(OC)c1 | -2 | 1 | -1.8 | -1.2% | 1 | 0.5
41 | COc1ccc(NC(=O)CC2SC(=Nc3ccccc3)NC2=O)c(OC)c1 (stereo unspecified) | -13 | -4 | -0.7 | 0.7% | 2 | 1.3
42 | CCCCCCOc1ccc(N2C(=O)CC(S/C(N)=N/N=C(\C)c3cccs3)C2=O)cc1 (stereo unspecified) | -11 | -12 | 6.6 | ? | -4 | 5.3
43 | CC1=C(C(=O)Nc2ccccc2)C(c2cccc(O)c2)n2nc(-c3ccccc3Cl)nc2N1 (stereo unspecified) | 34 | . | . | 1.0% | . | 0.1
44 | CCC(CC)c1nn2c(=O)cc(COc3ccc(NC(=O)c4ccccc4Cl)cc3)nc2s1 | 11 | . | . | 13% | . | -0.4
45 | COc1ccc(NC(=O)C/C(C)=N/NC(=O)c2cnccn2)cc1Cl | 12 | -25 | -3.1 | 0.6% | -8 | 0.1
46 | O=C(Nc1cc(S(=O)(=O)N2CCOCC2)ccc1N1CCCC1)C1COc2ccccc2O1 (stereo unspecified) | 8 | 3 | 0.3 | -0.3% | 4 | 0.9
47 | O=C(CSCc1c(Cl)cccc1Cl)Nc1cccnc1 | -2 | 1 | -6.4 | -0.1% | 2 | -1.2
48 | CN(c1ccccn1)c1ncnc2[nH]ncc12 | 18 | 3 | 0.8 | 1.6% | -2 | 0.5
49 | O=C(Nc1ccncc1)Nc1cccc(F)c1 | 11 | -2 | 7.1 | -0.1% | 0 | 0.9
50 | Cc1cc(C(=O)OCC(=O)N2CCCC2)c2ccccc2n1 | 28 | 8 | -1.5 | 7.9%[38.3 µM] | 4 | 3.3
51 | Cc1cc(C)cc(NC(=O)c2cccc(N3C(=O)C4C5C=CC(C5)C4C3=O)c2)c1 (stereo unspecified) | 9 | 1 | 4.1 | 0.2% | -1 | 1.3
52 | C=CCn1c(COc2ccccc2)nnc1SCC(=O)O | 15 | -4 | -2.0 | -0.4% | -3 | 0.3
53 | CCOC(=O)c1cc2c(ccn2C)n1CC(=O)N1CCN(c2cccc(C(F)(F)F)c2)CC1 | -1 | -26 | 0.0 | 3.5% | -25 | 1.9
54 | O=C1CC(c2ccco2)Cc2nc(N3CCN(Cc4ccc5c(c4)OCO5)CC3)ncc21 (stereo unspecified) | 7 | -17 | -6.2 | 0.4% | -22 | 0.1
55 | CCCCn1c(N)c(N(CCOC)C(=O)c2cc(-c3ccc(OC)c(OC)c3)nc3ccccc23)c(=O)[nH]c1=O | 5 | -1 | -1.2 | 3.6% | 6 | -0.3
56 | C=CC[C@H](CC(=O)N(CCO)Cc1ccccc1)C(=O)NC[C@H](OC(=O)[C@@H](CC=C)CC(=O)OC(C)(C)C)c1ccccc1 | 2 | -2 | -11 | 13% | 0 | -0.4
57 | COc1ccccc1N(C)S(=O)(=O)c1ccc(C(=O)NC(C)(C)C)cc1 | 15 | -10 | 0.1 | -1.3% | 4 | 0.8
58 | CN(C)S(=O)(=O)c1ccc(Cl)c(C(=O)OCC(=O)NC(=O)c2cccn2C)c1 | 1 | -5 | -2.5 | 0.9% | -7 | -0.4
59 | CN1CC(c2ccc(Cl)c(Cl)c2)[C@@]2(COc3ccccc3C2=O)[C@@]12C(=O)Nc1ccccc12 (stereo partly specified) | 6 | 7 | -3.8 | ? | -1 | -0.8
60 | CC(=O)C1=CCC(c2ccccc2)N(S(=O)(=O)c2ccc(Cl)cc2)C1 (stereo unspecified) | . | 2 | -3.8 | 0.5% | 3 | 0.0
61 | COC(=O)C1=C(NC(=O)c2ccccc2C)CCS1 | 56 | -8 | -1.9 | 2.6% | -16 | 3.1
62 | CCOc1ccc(NS(=O)(=O)c2ccc3c(c2)oc(=O)n3C)cc1 | 5 | 14 | -0.8 | 0.4%[38.3 µM] | -1 | -0.5
63 | COc1ccccc1OCCC(=O)OCC(=O)NC(C)c1ccccc1 (stereo unspecified) | 17 | 0 | -4.9 | -1.2% | -9 | 3.7

Arranged by the number under CtBP-E1A inh (highest first): some entries from above
no. | Molecule | CtBP-E1A inh
60 | CC(=O)C1=CCC(c2ccccc2)N(S(=O)(=O)c2ccc(Cl)cc2)C1 (stereo unspecified) | 2
51 | Cc1cc(C)cc(NC(=O)c2cccc(N3C(=O)C4C5C=CC(C5)C4C3=O)c2)c1 (stereo unspecified) | 1
55 | CCCCn1c(N)c(N(CCOC)C(=O)c2cc(-c3ccc(OC)c(OC)c3)nc3ccccc23)c(=O)[nH]c1=O | -1
